High-throughput results: PubChem BioAssay, National Center for Advancing Translational Sciences (NCATS)
PI4K2A block: PI4K2A (human) kinase inhibition. Q9BTU6. purified PI4K2A, ADP-Glo luminescence, 1 h; active compounds read low. activity change, negative = inhibition, % at 76.9 µM. 420,000 compounds, 0.13% hits. AID 1346378; in the data active = activity change below about -50%; inconclusive = mostly about -30% to -49%;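 note: -100% = wells without enzyme as full effect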
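ADP-Glo luminescence measured ADP generated by PI4K2A enzyme (4 ug/mL before mixing) with 1.2 mM PI substrate (pre-mix) and 300 microM ATP (pre-mix). Tris pH7.5 buffer with MgCl2, Triton X-100; 1 h reaction at ambient temperature.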
G9a block: G9a (human) methyltransferase inhibition; Q96KQ7; G9a H3K9 monomethylation, AlphaScreen, 2 h; Potency, µM (doses to about 102 µM), without a hit: at the highest dose activity, negative = inhibition, usual class: inhibitors; 350,000 compounds, 8.8% hits; note: potency is the fitted concentration of half-maximal effect; % is set by controls: 0 for no effect and ±100 for the full control effect; nearly all actives have a fitted effect of over 75% in size
Target sequence (Q96KQ7 913-1193 limits assumed): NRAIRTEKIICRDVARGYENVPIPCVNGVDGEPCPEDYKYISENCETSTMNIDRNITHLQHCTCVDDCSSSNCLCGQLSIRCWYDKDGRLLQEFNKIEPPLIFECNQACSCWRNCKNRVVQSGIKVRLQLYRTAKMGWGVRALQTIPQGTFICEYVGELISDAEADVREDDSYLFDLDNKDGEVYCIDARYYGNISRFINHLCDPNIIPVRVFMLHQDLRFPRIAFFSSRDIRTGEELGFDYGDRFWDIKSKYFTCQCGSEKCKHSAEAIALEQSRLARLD
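Compounds were preincubated with 20 nM G9a for 15 min, after which biotinylated H3K9 peptide (500 nM) and SAM (20 uM) started a 2 h room-temperature reaction. Monomethylated product was quantified by antibody-based AlphaScreen chemiluminescence.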
HP1b chromo inh: HP1-beta chromodomain-methylated histone interaction inhibition. AlphaScreen HP1-beta / biotin-H3K9me3 peptide binding. Potency, µM (top dose mostly 114 µM), without a hit: at the highest dose activity change, negative = inhibition, hits mostly inhibitors. 390,000 compounds, 0.56% hits. AID 540317; note: potency is the fitted concentration of half-maximal effect; nearly all actives have a fitted effect of over 70% in size; inactives centre near 23
Target sequence (P83916 whole entry, looked up): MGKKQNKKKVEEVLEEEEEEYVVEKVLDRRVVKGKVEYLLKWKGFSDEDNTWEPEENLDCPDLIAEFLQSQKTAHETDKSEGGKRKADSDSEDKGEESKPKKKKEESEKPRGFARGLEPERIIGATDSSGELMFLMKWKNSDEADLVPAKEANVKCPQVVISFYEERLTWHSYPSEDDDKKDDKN
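AlphaScreen: HP1-beta (50 nM) preformed 30 min with biotin-H3(1-18)K9me3 peptide (50 nM) in PBS pH 7.4, 0.01% Tween-20. Compound added for 30 min at RT, then streptavidin donor/nickel chelate acceptor beads (10 ug/mL) for 30 min.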
GLS inhibitor: inhibitors of human glutaminase (GLS) | O94925 | GLS enzymatic activity, qHTS titration | Potency, µM (series often up to 45.5 µM), for the others: at the highest dose activity change, negative = inhibition, most hits filed as inhibitors | 410,000 compounds, 0.21% hits | AID 624170; note: potency is the fitted concentration of half-maximal effect; % is set by controls: 0 for no effect and ±100 for the full control effect
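Compounds were pin-transferred onto hKGA, after which L-glutamine (1 mM solution) and a detection mix of glutamate oxidase, HRP and Amplex Red were added. Initial and 30 min RT fluorescence reads were collected.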
PGK inhibitor: blocks T. brucei phosphoglycerate kinase | PGK/GAPDH coupled, Kinase-Glo luminescence, 60 min | AID 602233 | Potency, µM (highest dose often 57.5 µM), inactives show top-dose activity change, negative = inhibition, usual class: inhibitors | P07378 | 380,000 compounds, 0.043% hits; note: potency is the fitted concentration of half-maximal effect; % is set by controls: 0 for no effect and ±100 for the full control effect; nearly all actives have a fitted effect of over 60% in size
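Recombinant glycosomal PGK reaction used 1,3-bisphosphoglycerate generated in-well by GAPDH (100nM final) in 100mM TEA pH 7.6, 5mM MgCl2, 0.01% Tween-20. After 60 minutes at room temperature, ATP was read by Kinase-Glo Plus luminescence end-point.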
Pin1 inh: human Pin1 inhibition | Q13526 | Pin1 FP peptide displacement, HiFluor488, 10 min | 390,000 compounds, 0.009% hits | Potency, µM (top dose mostly 115 µM), without a hit: at the top dose activity, negative = inhibition, hits mostly inhibitors | AID 504891; active = well fitted inhibition curve with a large enough effect in the polarisation, with a control signal flat, not every such curve was filed as active; inconclusive = small, poorly fitted or top-dose-only effect, or effect the other way, or a change in a side signal; inactive = no such curve, though single readings can be large or run the other way; the % refers to the polarisation; note: potency is the fitted concentration of half-maximal effect; % is set by controls: 0 for no effect and ±100 for the full control effect
Target sequence (Q13526 whole entry, looked up): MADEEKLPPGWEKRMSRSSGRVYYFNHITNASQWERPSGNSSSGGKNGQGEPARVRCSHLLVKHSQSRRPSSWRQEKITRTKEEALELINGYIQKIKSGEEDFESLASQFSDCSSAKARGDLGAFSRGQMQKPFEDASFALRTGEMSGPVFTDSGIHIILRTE
ERG Ets-DNA blk: blocks human ERG Ets domain binding to DNA; P11308; fluorescence polarization, His-ERG Ets domain / labelled DNA; Potency, µM (series often up to 76.9 µM), for inactives: top-dose FP activity, negative = inhibition, actives largely listed as inhibitors; 370,000 compounds, 0.028% hits; AID 624246; active = well fitted inhibition curve with a large enough effect in the polarisation, with a control signal flat; inconclusive = small, poorly fitted or top-dose-only effect, or effect the other way, or a change in a side signal; inactive = no such curve, though single readings can be large or run the other way; the % refers to the polarisation;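 note: polarization taken with two DNA probes labelled with fluorescein and Texas red; potency is the fitted concentration of half-maximal effect; % of control where 0% means no effect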
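His-tagged ERG Ets domain (1 uM in the protein solution; 300mM KCl, 50mM Tris-HCl, 1mM EDTA, 1mM DTT, pH 7.5) received compound, then a probe mix of 5 nM fluorescein-DNA and 100nM Texas-615-DNA. Fluorescence polarization was read for both dyes.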
Numbers without * were called inactive; i = inactive; ? = inconclusive; . = no result given; & = joins results of further samples; [ ] = dose if it differs, or a comment. Unless noted, calls come from the whole dose curve; as a rule, active = well fitted curve in the direction sought with a large enough effect; inconclusive = small, poorly fitted or top-dose-only effect, or another doubt; inactive = no such curve, though single readings can be large; an effect the other way counts as inactive or inconclusive.

| no. | compound | PGK inhibitor | PI4K2A block | G9a block | Pin1 inh |
| --- | --- | --- | --- | --- | --- |
| 1 | COc1cnc(-c2ccccn2)nc1Sc1ccc(C)cc1 | -1% | -6 | ? | -6% |
| 2 | CCOC(=O)c1cc2ccc3ccccc3c2oc1=O | -1% | -4 | . | -7% |
| 3 | CN(C)c1oc(-c2ccccc2)nc1C#N | -2% | 0 | 17%[12.7 µM] | 6% |
| 4 | Cc1ccc(-n2c3c(c(=O)[nH]c2=O)C(NS(=O)(=O)c2ccc(C)cc2)(C(F)(F)F)C(=O)N3)cc1 (centres undefined) | -1%&-1% | 2&0 | -16%[59 µM] | -6%&-6% |
| 5 | CCn1c(Cc2ccccc2)nnc1SCC(=O)Nc1ccccc1 | -10% | 4 | -5%[59 µM] | -19% |
| 6 | N#Cc1cn(CC(=O)N2CCCC2)c2ccccc12 | 5% | 4 | 6%[12.7 µM] | 5% |
| 7 | CSc1ccc(-c2nc(CN(C)C3CCOC3)c(C)o2)cc1 (centres undefined) | -13% | 2 | . | 3% |
| 8 | Cc1ccc2cc(C)c3nnc(SCC(=O)NCc4ccco4)n3c2c1 | -23% | -6 | . | ? |
| 9 | C=CCn1c(COc2ccc(Cl)cc2)nnc1SCC(=O)Nc1ccc(S(N)(=O)=O)cc1 | 14% | -9 | 1% | 6% |
| 10 | O=C(O)c1ccc2c(=O)n3c(nc2c1)/C(=C/c1ccccc1Br)CC3 | -7% | -1 | 19% | -8% |
| 11 | COc1cc(CNC2CCCC2)cc(OC)c1 | -4% | 0 | 45µM* | -2% |
| 12 | O=C(O)CCCNC(=O)/C=C/c1ccco1 | ? | -5 | . | . |

| no. | GLS inhibitor | ERG Ets-DNA blk | HP1b chromo inh |
| --- | --- | --- | --- |
| 1 | 0% | 5% | 27% |
| 2 | -4% | 20% | 41%[activator] |
| 3 | -1% | -2% | -10% |
| 4 | -3%&-1% | 8%&-6% | 10%&19% |
| 5 | 0% | -12% | 21% |
| 6 | -20% | 0% | 26% |
| 7 | -8% | -9% | 16% |
| 8 | -15% | -6% | -15% |
| 9 | -14% | 18% | 34% |
| 10 | -21% | 5% | 15% |
| 11 | 1% | . | -24% |
| 12 | 33%[activator] | 5% | 35µM* |

In another format: 2 of the compounds above.
| # | SMILES | PGK inhibitor | PI4K2A block | G9a block | Pin1 inh | GLS inhibitor | ERG Ets-DNA blk | HP1b chromo inh |
| --- | --- | --- | --- | --- | --- | --- | --- | --- |
| 4 | Cc1ccc(-n2c3c(c(=O)[nH]c2=O)C(NS(=O)(=O)c2ccc(C)cc2)(C(F)(F)F)C(=O)N3)cc1 (centres undefined) | -1%&-1% | 2&0 | -16%[59 µM] | -6%&-6% | -3%&-1% | 8%&-6% | 10%&19% |
| 5 | CCn1c(Cc2ccccc2)nnc1SCC(=O)Nc1ccccc1 | -10% | 4 | -5%[59 µM] | -19% | 0% | -12% | 21% |

More records:
| no. | compound | PGK inhibitor | PI4K2A block | G9a block | Pin1 inh |
| --- | --- | --- | --- | --- | --- |
| 13 | Cc1ccc(NCCN(C)C)c2c(=O)c3cc(O)ccc3sc12 | -4% | 6 | . | 38%[activator] |
| 14 | COc1cccc(CNC2CCCC2)c1 | -4% | 5 | ? | -3% |
| 15 | COc1ccccc1NC(=O)CN1CCC(n2c(C)nc3cc(F)ccc32)CC1 | 2% | 3 | -8%[12.7 µM] | 7% |
| 16 | C=CCNc1ncnc2c1cnn2-c1ccc(OC)cc1 | -8% | -6 | 14%[12.7 µM] | 1% |
| 17 | Cc1ccc(C(=O)Oc2ccc(Cl)c3cccnc23)cc1[N+](=O)[O-] | -9% | -20 | 21% | 0% |
| 18 | CCCCC(C(=O)NCCC(C)C)N(CCCN1CCOCC1)C(=O)c1snc(C(N)=O)c1N (centres undefined) | 2% | -3 | -4%[59 µM] | -2% |
| 19 | O=C(NC(=S)N1CCCc2ccccc21)c1ccc([N+](=O)[O-])cc1 | -4% | -3 | 10µM* | -15% |
| 20 | Nc1ccc2nc(Cc3ccccc3)[nH]c2c1 | 2% | -24 | ? | 1% |
| 21 | CCc1nccn1CCC(=O)N1CCCC(Nc2ccc(C(C)C)cc2)C1 (centres undefined) | -2% | 2 | . | -5% |
| 22 | O=C1Nc2c(c(=O)[nH]c(=O)n2-c2ccccc2)C1(Nc1ncccn1)C(F)(F)F (centres undefined) | i | 4 | ? | 2% |
| 23 | CCOC(=O)C1CCCN(c2nc3ccccc3nc2C(C#N)C(=O)NCc2ccccc2)C1 (centres undefined) | -1% | -4 | 1%[59 µM] | ? |
| 24 | CCOC(=O)C1CCCN(Cc2cc(Br)ccc2OC)C1 (centres undefined) | i | 11 | 3.2µM* | -2% |

| no. | GLS inhibitor | ERG Ets-DNA blk | HP1b chromo inh |
| --- | --- | --- | --- |
| 13 | 35%[activator] | 12% | ? |
| 14 | 3% | -2% | -10% |
| 15 | 14% | 1% | 24% |
| 16 | 1% | 6% | 10% |
| 17 | 0% | -6% | 4% |
| 18 | -10% | 0% | 28% |
| 19 | 49%[activator] | . | -37% |
| 20 | 0% | -5% | 8% |
| 21 | 12% | 8% | -11% |
| 22 | -4% | -3% | 36% |
| 23 | 3% | -11% | 48%[activator] |
| 24 | 7% | 4% | ? |

7 entries from above, with bars between the fields:
nr | smiles | PGK inhibitor | PI4K2A block | G9a block | Pin1 inh | GLS inhibitor | ERG Ets-DNA blk | HP1b chromo inh
16 | C=CCNc1ncnc2c1cnn2-c1ccc(OC)cc1 | -8% | -6 | 14%[12.7 µM] | 1% | 1% | 6% | 10%
14 | COc1cccc(CNC2CCCC2)c1 | -4% | 5 | ? | -3% | 3% | -2% | -10%
11 | COc1cc(CNC2CCCC2)cc(OC)c1 | -4% | 0 | 45µM* | -2% | 1% | . | -24%
8 | Cc1ccc2cc(C)c3nnc(SCC(=O)NCc4ccco4)n3c2c1 | -23% | -6 | . | ? | -15% | -6% | -15%
1 | COc1cnc(-c2ccccn2)nc1Sc1ccc(C)cc1 | -1% | -6 | ? | -6% | 0% | 5% | 27%
12 | O=C(O)CCCNC(=O)/C=C/c1ccco1 | ? | -5 | . | . | 33%[activator] | 5% | 35µM*
15 | COc1ccccc1NC(=O)CN1CCC(n2c(C)nc3cc(F)ccc32)CC1 | 2% | 3 | -8%[12.7 µM] | 7% | 14% | 1% | 24%

Carrying on:
| no. | compound | PGK inhibitor | PI4K2A block | G9a block | Pin1 inh |
| --- | --- | --- | --- | --- | --- |
| 25 | CCOC(=O)/C(C#N)=C/c1ccc(OC(=O)c2ccccn2)cc1 | -12% | ? | 4.5µM* | 25% |
| 26 | N#C/C(=C\c1ccc(OC(=O)c2ccccn2)cc1)C(N)=O | -4% | -3 | 7.1µM* | -8% |
| 27 | O=C(CSc1ncn(-c2ccccc2)n1)Nc1nc2c(s1)CCCC2 | -12% | -1 | -26%[12.7 µM] | ? |
| 28 | O=C(CSc1cn[nH]n1)Nc1ccccc1F | i | 1 | -19% | -1% |
| 29 | C=CCN1C(=O)/C(=c2\sc3nc(=O)c(Cc4ccccc4)nn3c2=O)c2ccccc21 | -8% | -3 | . | ? |
| 30 | C/C(CC(=O)Nc1cccc(Cl)c1Cl)=N\NC(=O)c1ccccc1C | i | -1 | 20µM* | 20% |
| 31 | Fc1ccc(CNCc2ccc3c(c2)OCO3)cc1 | 1% | -1 | 15% | 3% |
| 32 | N#C/C(=C\c1ccc([N+](=O)[O-])o1)C(=O)Nc1ccc(F)cc1 | 6% | -17 | . | ? |
| 33 | CC(=O)Oc1cccc(C(=O)Nc2cccc(C(=O)Nc3ccccc3C(=O)O)c2)c1 | -6% | -1 | -13% | -2% |
| 34 | COc1cccc(CCNc2ccc(N3C(=O)CC(C)C3=O)cc2[N+](=O)[O-])c1 (centres undefined) | -4% | 0 | -49% | -1% |
| 35 | S=C(NCc1ccccc1)NCc1ccc2c(c1)OCO2 | i | -4 | 13%[59 µM] | -2% |
| 36 | O=C(CSc1nnc(Nc2ccccc2F)s1)NCc1ccco1 | -13% | -10 | ? | ? |

| no. | GLS inhibitor | ERG Ets-DNA blk | HP1b chromo inh |
| --- | --- | --- | --- |
| 25 | 16% | 37%[activator] | 17% |
| 26 | 18% | -3% | 37% |
| 27 | ? | 2% | ? |
| 28 | -15% | -10% | 37% |
| 29 | ? | 16% | ? |
| 30 | 11% | 25% | 41%[activator] |
| 31 | 2% | -2% | 28% |
| 32 | 5% | 84%[activator] | -3% |
| 33 | 3% | 8% | 1% |
| 34 | 2% | 17% | -24% |
| 35 | -4% | 2% | 8% |
| 36 | 9% | 5% | ? |

An excerpt; rates above refer to the full screens.
